Bioassay records deposited in PubChem by National Center for Advancing Translational Sciences (NCATS).
gsp antagonist: antagonists of gsp mutant (McCune-Albright syndrome) | gsp-mutant cells, cAMP HTRF, 30 min; control for the full effect not named in the record | Potency, µM (titrated, usually from 76.9 µM), inactives show at the top dose activity change, negative = inhibition, usual class: inhibitors | hit rate 0.4% among 340,000 | AID 624288; active = falling curve of any shape with a large fitted effect; inconclusive = falling curve, mostly with a smaller effect; inactive = flat or rising curve; cell line not stated here;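 also: intracellular cAMP measured with PDE inhibitor Ro 20-1724 present during compound exposure; potency is read from the fitted curve at half-maximal effect; % is scaled to controls: 0 for no effect and ±100 for the full control effect; nearly all actives have a fitted effect of over 65% in size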
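HTRF cAMP measurement after 30 min RT detection following 30 min, 37C compound treatment alongside […] (added as 300 uM solution) in G418-selected cells seeded at 2000/well and grown 16–24 h.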
D2 ag: activates the human D2 dopamine receptor. P14416. DiscoveRx PathHunter D2 beta-arrestin, luminescence, 90 min; 100% = 57 uM dopamine signal. activation, % (concentration not given with the values). hit rate 0.084% among 360,000. AID 624465; in the data active = activation above about 40%; inconclusive = about 15% to 40%; inactive = below about 15%; also: compound concentration not given in the record; the text of the record calls up to 30% inactive
Target sequence (P14416 whole entry, looked up): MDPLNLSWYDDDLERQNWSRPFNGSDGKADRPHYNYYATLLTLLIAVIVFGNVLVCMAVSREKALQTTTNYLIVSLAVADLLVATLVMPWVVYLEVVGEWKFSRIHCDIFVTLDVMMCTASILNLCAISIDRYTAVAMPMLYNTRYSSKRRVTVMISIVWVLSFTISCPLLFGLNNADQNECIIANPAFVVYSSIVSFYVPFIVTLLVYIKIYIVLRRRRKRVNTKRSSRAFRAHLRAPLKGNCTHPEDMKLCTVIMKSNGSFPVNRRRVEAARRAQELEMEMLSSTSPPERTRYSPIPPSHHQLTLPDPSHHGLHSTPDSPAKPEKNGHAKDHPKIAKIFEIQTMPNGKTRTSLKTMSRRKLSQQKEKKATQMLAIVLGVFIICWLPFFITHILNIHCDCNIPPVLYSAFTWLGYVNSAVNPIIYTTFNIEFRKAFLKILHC
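DiscoveRx PathHunter D2 beta-arrestin cells (2,100/well) attached overnight, then compound-stimulated 90 min at 37 C in HBSS/10 mM HEPES/0.1% Tween-20 buffer; beta-galactosidase complementation read by luminescence after 1 h at ambient temperature. Dopamine 57 uM final (EC100) as control.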
Menin MLL FP FL: inhibitors of human menin-MLL interaction, wild-type MLL peptide; Fluorescence polarization, fluorescein-MLL peptide displacement from menin; FP activity change, % at 61.4 µM; 290,000 tested, under 10 active; AID 1766; inconclusive = falling polarisation curve, or a change in total fluorescence; inactive = total fluorescence flat and polarisation flat or rising; no compound was filed as active; the % refers to the polarisation; negative = inhibition;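 also: % of control where 0% means no effect; inhibitors lower the polarisation; unlabelled MLL peptide was the positive control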
Sfp PPTase inh: blocks B. subtilis Sfp PPTase activity | Q9F4F7 | Biochemical Sfp PPTase activity, qHTS | Potency, µM, inactives show max response, negative = inhibition, hits mostly inhibitors | hit rate 3.5% among 310,000; active = well fitted inhibition curve with a large enough effect; inconclusive = small, poorly fitted or top-dose-only effect, or another doubt; inactive = no such curve, though single readings can be large or run the other way;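 also: the enzyme is Sfp with the accession as filed and its product quenches rhodamine fluorescence; potency is read from the fitted curve at half-maximal effect; 0% = enzyme reaction without inhibitor and -100% = no enzyme wells; top concentration of the series not given in the record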
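Sfp 15 nM + cpd, 15 min RT; start w/ rhodamine-CoA 5 uM, BHQ-2-YbbR 12.5 uM (final); 50 mM Hepes pH 7.6, 10 mM MgCl2, 0.01% NP-40, 0.01% BSA; read 525/598 nm at 0 and 30 min.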
ClpP mod: qHTS Assay for Activators of ClpP | purified B. subtilis ClpP, FRET peptide cleavage, 20 min | Potency, µM (highest dose often 57.5 µM), without a hit: at the highest dose activity change, negative = active | hit rate 1.9% among 340,000; active = well fitted falling curve with a large enough effect; inconclusive = small, poorly fitted or top-dose-only effect; inactive = no such curve, though single readings can be large or run the other way; also: potency is read from the fitted curve at half-maximal effect; the source files actives as falling curves though it sought activators and does not explain the sign; nearly all actives have a fitted effect of over 65% in size; many hits overshoot -100%
Target sequence (P80244 whole entry, looked up): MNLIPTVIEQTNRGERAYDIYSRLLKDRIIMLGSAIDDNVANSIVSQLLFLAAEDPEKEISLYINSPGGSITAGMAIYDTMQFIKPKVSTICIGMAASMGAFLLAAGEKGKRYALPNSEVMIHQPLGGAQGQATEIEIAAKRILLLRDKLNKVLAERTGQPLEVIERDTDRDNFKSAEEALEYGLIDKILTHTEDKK
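ClpP 10 microg/mL final, pH 8 Tris/KCl buffer with BSA, glycerol, Tween-20; compound pinned in; FRET-FV substrate; RT 20 min; Ex320/Em430; ΔFRET vs ADEP 5.8 microM, DMSO, no enzyme.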
PINK1 modulator: PINK1 expression modulation | hit rate 0.2% among 410,000 | PINK1 immunofluorescence, high-content cytometry, 24 h | Potency, µM (series often up to 76.6 µM), for inactives: top-dose activation (PINK1 increase), most hits filed as activators; active = well fitted activation curve with a large enough effect; inconclusive = small, poorly fitted or top-dose-only effect; inactive = flat fitted curve, though single readings scatter; cell line not stated here;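 also: potency is read from the fitted curve at half-maximal effect; % of control where 0% means no effect; nearly all actives have a fitted effect of over 65% in size; a mitochondrial uncoupler was the plate control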
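Fluorescence from anti-PINK1 antibody, together with nuclear and cell stains, was scanned on a laser-scanning cytometer. Before staining, stable-line cells were incubated 24 hours with compounds at 5 concentrations; primary antibody 12 h at 10 degrees C.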
gsp ag: activates gsp, the McCune-Albright syndrome mutation; Potency, µM (titrated, usually from 76.9 µM), without a hit: at the highest dose activation (cAMP increase), actives largely listed as activators; AID 624287; gsp mutant cells, cAMP HTRF, 30 min; control for the full effect not named in the record; hit rate 0.13% among 340,000; active = well fitted activation curve with a large enough effect; inconclusive = small, poorly fitted or top-dose-only effect, or another doubt; inactive = no such curve, though single readings can be large or run the other way; cell line not stated here;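 also: phosphodiesterase inhibitor Ro 20-1724 added with compounds to block cAMP breakdown; potency is read from the fitted curve at half-maximal effect; nearly all actives have a fitted effect of over 60% in size; about a fifth of the inactives were tested at one dose only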
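Cells in DMEM/10% FBS with G418 were pretreated with compounds in DMSO plus […] (300 uM stock) for 30 min at 37C. cAMP was measured by HTRF (cAMP-d2 plus anti-cAMP antibody-K) after 30 min at room temperature.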
* hit, by the source's call; ? = inconclusive; nt = not tested or not shown; & = joins results of further samples; [ ] = dose if it differs, or a comment.

SMILES	gsp antagonist	D2 ag	Menin MLL FP FL	Sfp PPTase inh	ClpP mod	PINK1 modulator	gsp ag
CC(C)CNC(=O)c1c(N)n(/N=C/c2ccccn2)c2nc3ccccc3nc12	5%	-4.8	2.1	14%	1.0%	4.0%	13%
CC(C)CN(C(=O)c1ccc(=O)n(C)n1)c1c(N)n(Cc2ccccc2)c(=O)[nH]c1=O	3%	-1.9	nt	nt	-2.2%	3.0%	-51%[inhibitor]
CC1C(=O)Nc2ccc(S(=O)(=O)N3CCN(c4cccc(Cl)c4)CC3)cc2NC1=O (configuration not stated)	-7%	?	-2.2	4%	-1.3%	17%	-29%
COCCNC(=O)C(c1ccccc1C)N(C(=O)Cn1nnc2ccccc21)c1cccnc1 (configuration not stated)	6%	-3.4	3.7	8%	-4.8%	1.2%	5%
O=C(O)CC1c2ccccc2CCN1S(=O)(=O)c1ccccc1 (configuration not stated)	-13%	3.9	nt	nt	nt	1.0%	-5%[15.4 µM]
CCC(=O)Nc1c(C)cc(C)cc1Cl	-5%	-2.8	-1.7	14%	0.2%	0.4%	-1%
COc1cccc(NC(=O)N(Cc2cc3cc(C)cc(C)c3[nH]c2=O)CC2COCCO2)c1 (configuration not stated)	-23%	-1.6	-0.5	5%	-9.4%	0.3%	0%
O=C(CCl)NN1C(=O)NC2(CCCCC2)C1=O	12%	-2.8	-0.4	18%	-0.5%	1.4%	6%
COC(=O)Oc1ccc(/C=C/C(=O)OC(C)C)cc1OC(=O)OC	-1%	6.9	0.9	6%	0.6%	1.6%	14%
CCN(CC)c1ccc(-c2nn3c(-c4n[nH]c5c4CCC5)nnc3s2)cc1	7%	-0.6	12	-24%	28µM*	-2.5%	-1%
c1ccc(-n2nnnc2N2CCOCC2)cc1	15%	-3.6	5.4	-7%	-1.6%	1.4%	-3%
O=C1C=CC(=Nc2ccc(F)cc2)O1	13%	-3.4	nt	nt	nt	5.6%	-1%
CCCNC1=CC(=O)CC(C)(C)C1	-7%	-3.1	-0.3	10%	3.2%	3.5%	25%[15.4 µM]
Cc1cc(Cl)c(OCCCn2ccnc2)c(Br)c1	11%	2.3	2.3	10%	-2.0%	3.4%	9%[15.4 µM]
CCCCCCn1c(CN2CCCC(C)C2)nc2c1c(=O)n(C)c(=O)n2C (configuration not stated)	-3%	5.6	0.7	9%	1.8%	-1.7%	-31%[inhibitor]
NC(=O)Oc1cccc(OC(N)=O)c1	0%	-2.4	-1.5	10%	-1.3%	0.3%	-43%
CC1CN(CCS(=O)(=O)c2cc(Cl)ccc2Cl)CC(C)O1 (configuration not stated)	10%	0.0	-3.8	6%	nt	0.1%	-18%[15.4 µM]
CN(C)C(=O)c1cc(C(=O)c2c(F)cccc2F)c[nH]1	7%	1.1	10	2%	nt	-0.7%	14%
Cc1ccccc1C(=O)Nc1ccc(S(=O)(=O)N2CC(C)OC(C)C2)cc1 (configuration not stated)	11%	-6.3	-5.8	5%	nt	-0.4%	-9%
CC(=O)Nc1ccc(S(=O)(=O)N2CCNC(=O)CC2)cc1	18%	-0.8	-5.2	3%	-2.2%	1.2%	-26%
CCOC(=O)/C=C/c1ccc(C(F)(F)F)cc1S(=O)(=O)NC(C)(C)C	-9%	2.5	nt	nt	-1.3%&2.2%	5.2%	?
CCCc1cc(=O)[nH]c(SCC(=O)c2cc(C)n(C)c2C)n1	1%	-4.3	1.0	7%	-2.8%	-1.5%	0%
CN(Cc1ccccc1)C(=O)c1ccc([N+](=O)[O-])o1	6%	?	-1.2	-9%	-1.6%	12%	17%
CCOc1ccccc1N1CCN(C(=O)CCCc2nc3ccccc3s2)CC1	-5%	-5.4	1.4	1%	-2.9%	0.8%	-34%[inhibitor]
CN(CC(=O)NC1CC1)S(=O)(=O)c1ccc(F)cc1	3%	-5.2	-8.1	20%	2.3%	0.3%	-1%
Additional records
SMILES	gsp antagonist	D2 ag	Menin MLL FP FL	Sfp PPTase inh	ClpP mod	PINK1 modulator	gsp ag
O=C(C1CCCCC1C(=O)N1CCCCC1)N1CCCCC1 (configuration not stated)	4%	2.4	nt	nt	-5.1%	-2.9%	-6%
O=C(NC(=S)NCc1ccccc1)c1cccc([N+](=O)[O-])c1	-6%	14	-0.8	9%	0.5%	0.7%	1%
COc1ccccc1CCNC(=O)CCn1nc(C)c2c(C)n(-c3ccccc3)nc2c1=O	0%	3.1	nt	5%	-2.9%	-0.8%	-13%
COc1ccccc1CNC(=O)CCNC(=O)Cn1cnc2ccccc2c1=O	8%	-2.7	-6.8	0%	-1.8%	1.2%	1%
CCOc1cc(/C=N\Nc2ncc(F)c(N3CCOCC3)n2)ccc1Oc1nc(Cl)ncc1F	-32%	-0.3	13	?	-0.1%	-1.1%	2%[15.4 µM]
COc1cc(/C=N/n2c(C)nnc2C)cc(OC)c1OC	0%	-2.8	0.5	21%	-14%	2.4%	-8%
C=CCn1c(SCC(=O)NC2CCS(=O)(=O)C2)nc2sc(CC)cc2c1=O (configuration not stated)	-4%	1.6	-0.7	2%	-11%	-3.0%	12%
Cc1ccc(NC(=O)c2ccccc2OCc2c(C)noc2C)cc1S(=O)(=O)N(C)C	-8%	0.1	nt	nt	-0.8%	0.1%	17%
COc1cccc(OC)c1C(=O)Nc1cccc(NC(=O)c2cccs2)c1	-3%	2.6	4.1	-4%	0.2%	3.4%	20%
O=S(=O)(Oc1ccccc1)c1cccnc1	13%	-1.2	nt	nt	-5.9%	1.4%	-15%[15.4 µM]
NC(=O)c1ccccc1NC(=O)CC12CC3CC(CC(C3)C1)C2	-1%	-2.7	-3.0	4%	-1.5%	10%	-1%
CS(=O)(=O)Nc1ccccc1C(=O)Nc1cccc(Cl)c1	?	-5.0	-1.3	-1%	-29%	2.8%[38.3 µM]	-36%
O=C1c2cnc3nc(SCc4ccc(Cl)cc4)nn3c2CC2c3ccccc3CCN12 (configuration not stated)	1%	-6.8	4.9	4%	32µM*	0.2%	-3%
CC(=O)N(c1ccc(Cl)cc1)c1c[nH]c2ccccc12	-13%	0.6	3.1	5%	-0.8%	-3.5%[38.3 µM]	3%
COc1ccc(C2C(C)C3(O)CC(C#N)(C(=O)N3)C2(C#N)C#N)cc1 (configuration not stated)	11%	-3.5	-0.7	1%	nt	1.4%	1%[15.4 µM]
CN(C)CCCN(C(=O)c1ccc(Cl)s1)c1nc2cc3c(cc2s1)OCO3	12%	-1.0	-4.8	-1%	1.5%	-1.6%	26%
CCOCC(=O)Nc1ccc2c(c1)OCCO2	0%	-3.0	0.4	0%	-0.6%	-0.3%	2%
COc1cccc(N=c2oc3cc(O)ccc3cc2C(=O)NCC2CCCO2)c1 (configuration not stated)	?	-1.3	?	-14%	nt	1.9%	-24%
COc1cc(C2CC(=O)Oc3cc(O)ccc32)cc(OC)c1OC (configuration not stated)	3%	-2.0	-2.6[94.6 µM]	-10%	0.8%	0.6%	nt
CCNC(=O)NC(=O)C(C)SCc1ccccc1C (configuration not stated)	8%	-0.8	-3.4	17%	0.9%	?	0%
COc1ccc(S(=O)(=O)N(Cc2ccco2)Cc2cc3ccccc3[nH]c2=O)cc1	?	-4.0	nt	-7%	-21%	7.3%	1%
O=c1c2cc(Br)ccc2nc2n1CCCCC2	4%	-3.2	0.2	13%	-3.2%	-1.3%	1%
CNS(=O)(=O)c1ccc(CCC(=O)N2CCOCC2)cc1	2%	2.9	nt	nt	0.8%	2.9%	3%
CCCN(CCO)Cc1cccc(Cl)c1	-14%	-2.1	-2.0	-19%	-1.8%	7.6%[38.3 µM]	-17%
O=C(NCCN1CCCCC1)c1ccc(=O)oc1	6%	-2.8	-11	9%	-23%	30%[38.3 µM]	6%

Reprinted from the part before: 2 compounds; new compounds follow.
SMILES	gsp antagonist	D2 ag	Menin MLL FP FL	Sfp PPTase inh	ClpP mod	PINK1 modulator	gsp ag
CCCN(CCO)Cc1cccc(Cl)c1	-14%	-2.1	-2.0	-19%	-1.8%	7.6%[38.3 µM]	-17%
O=C(NCCN1CCCCC1)c1ccc(=O)oc1	6%	-2.8	-11	9%	-23%	30%[38.3 µM]	6%
Cc1ccc(/C=C/C(O)=C2/C(=O)N(C)C3(C)CC2c2ccccc2O3)cc1 (configuration not stated)	1%	-0.4	2.4	-10%	?	-3.2%	7%
CC(C)[C@H](NC(=O)c1ccccc1Cl)C(=O)OCC(=O)N1CCCCC1	2%	2.1	nt	nt	-2.6%	-1.2%	31%
c1nnc(NC2=NCCC2)s1	10%	1.4	-2.6	?	-11%	-0.2%	-11%
CCc1ccccc1-n1c(-c2ccncc2)n[nH]c1=S	1%	-1.7	-0.4	-14%	-1.3%	4.3%[38.3 µM]	16%
O=C(/C=C/c1ccc(F)cc1)NC(Cc1c[nH]c2ccccc12)C(=O)O (configuration not stated)	5%	-0.6	-4.8	10%	nt	-0.5%	7%[15.4 µM]
COc1cc(NS(=O)(=O)c2ccc(NC(=O)C3CCCO3)cc2)nc(OC)n1 (configuration not stated)	-9%	0.2	4.5	-21%	-0.7%	4.4%[38.3 µM]	-3%
CCOc1ccc(Cn2c3ccc(OC)cc3c3nc4ccccc4nc32)cc1	7%	0.9	-4.0	-10%	0.7%	17%	-41%[inhibitor]
O=C(N1CCOCC1)C12CCC3CC(CC(C3)C1)C2	-1%	-2.2	1.8	17%	-0.4%	1.1%	?
CCCn1c(=O)c(C(=O)Nc2ccccc2C(=O)OCC)c(O)c2ccccc21	1%	-1.2	nt	0%	-3.8%	4.6%[38.3 µM]	0%
Cc1ccccc1-n1nnnc1SCC(C)C	-13%	-18	1.2	-16%	nt	2.3%	6%[15.4 µM]
O=C(Nc1ccccc1N1CCOCC1)c1cc2c(s1)CCCCC2	-27%	6.6	-2.2	-12%	-0.9%	0.0%	17%[15.4 µM]
O=C(Nc1nccs1)c1cc(-c2ccccc2)nc2ccccc12	-20%	-2.4	7.5	1%	-0.7%	0.5%	12%[15.4 µM]
COc1cc(NC(=O)c2cc(C)nc3ccccc23)cc(OC)c1	1%	0.8	1.2	14%	nt	8.4%	1%
O=C(Nc1cccc(-c2ccc3nncn3n2)c1)C(F)(F)F	0%	5.1	1.1	19%	-6.8%	0.8%	-12%
